Screening results (PubChem BioAssay)
HNF4A DNA FP: change in binding of human HNF4 alpha to DNA; HNF4a-FITC DNA binding, fluorescence polarization, 1 h; activity change, % at 10 µM; 360,000 compounds, 0.3% hits; AID 1224865; in the data active means activity change above about 30%, passing the limit was not always enough;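 further: controls were the assay level and a saturating level of protein; the project sought stronger binding though the title names inhibitors; some compounds called inactive have numbers as strong as hits; positive values seem to mean higher polarization but the record does not say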
Vif A3G: inhibitors of Vif binding to APOBEC3G peptide, primary screen, biochemical, TR-FRET, GST-Vif 1-94, biotin-A3G peptide, dose response retest (AID 1117319); 260,000 compounds, 0.57% hits; one-dose inhibition, %; IC50 in µM for titrated hits; TR-FRET GST-Vif / biotin-A3G peptide binding; higher % means a stronger effect; test concentration not given here; strong numbers were not always called active;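 active means above the screen mean plus three standard deviations and confirmed in dose response; inconclusive means results disagree or hit not tested in dose response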;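 further: Vif residues 1-94 fused to GST binding biotinylated APOBEC3G peptide 110-148; 0% = full assay without inhibitor and 100% = GST in place of GST-Vif; retest series ran down from 100 µM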
Bfl-1 A1 inh: inhibitors of the anti-apoptotic protein A1, read as caspase activation. MEF A1-2A-BIM cells, Caspase-Glo 3/7 luminescence, 3 h; percent of clofoctol response, vehicle zero. 330,000 compounds, 0.066% hits. caspase activation, % (no concentration beside the values). AID 2462;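 active means over half of replicate activation scores above 10%, or exactly half above 10 with the replicate mean above 10; inconclusive means replicate mean below 10 yet half the replicates above 10; inactive means over half of replicates below 10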;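 further: wells of about 30 µL received 50 nL stock; many hits fall short of the cut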
Beta2AR agonist: activates human beta-2 adrenergic receptor causing internalization; P07550; Am2.2-beta2AR cells, FAP receptor internalization, flow cytometry; reference of the scale not given here; response, % (test concentration not listed); 340,000 compounds, 0.43% hits; AID 504454;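 active means response above a set limit, near 3 SD of response in nonfluorescent compounds, cut at about 42% in these data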;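 further: stock transfer was 100 nL into about 11 µL; a reference agonist was the positive control; negative values mostly stem from fluorescent compounds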
UCH37 inh: blocks the human deubiquitinase UCH37; Q9Y5K5; purified proteasome/UCH37, Ub-AMC cleavage fluorescence; inhibition, % (test concentration not listed); 330,000 compounds, 0.33% hits;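 active means mean of two replicates above 20%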;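 further: 0% = compound-free wells with enzyme and 100% = wells lacking proteasome; stock transfer was 100 nL into about 20 µL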
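Schedule: 30 min plus 25 min, room temperature / Material: human UCH37 within purified proteasomes / Technique: AMC fluorescence intensity at 355/460 nm / Buffer or medium: pH 7.4 Tris-HCl (50 mM) with ovalbumin, ATP-MgCl2, DTT / Controls: wells without proteasome as full block, compound-free enzyme plus substrate as uninhibited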
Ecoli growth: E. coli growth inhibition | OD600 absorbance (concentration not given with the values) | 330,000 compounds, 0.21% hits | Escherichia coli growth, OD600, 23 h; stronger effect = lower value;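 active means OD600 absorbance below the run mean of sample wells minus 3.6 SD, in any replicate, cut at about 0.56 in these data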;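 further: stock transfer was 300 nL into about 60 µL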
LANA-H2B inh: blocks KSHV LANA binding to histone H2A/H2B; Q9QR71; cell-free LANA-H2A/H2B peptide, fluorescence polarization; inhibition, % (no concentration beside the values); 320,000 compounds, 0.6% hits; AID 2629; in the data active means inhibition mostly above about 10%, no sharp cut-off; inactive means mostly below about 6.7%;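 further: stock transfer was 7.5 nL into about 10 µL; 0% = median of vehicle wells and 100% = median of positive control wells; one replicate is shown; the record names a cut of 25% in any replicate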
Target sequence (Q9QR71 whole entry, looked up): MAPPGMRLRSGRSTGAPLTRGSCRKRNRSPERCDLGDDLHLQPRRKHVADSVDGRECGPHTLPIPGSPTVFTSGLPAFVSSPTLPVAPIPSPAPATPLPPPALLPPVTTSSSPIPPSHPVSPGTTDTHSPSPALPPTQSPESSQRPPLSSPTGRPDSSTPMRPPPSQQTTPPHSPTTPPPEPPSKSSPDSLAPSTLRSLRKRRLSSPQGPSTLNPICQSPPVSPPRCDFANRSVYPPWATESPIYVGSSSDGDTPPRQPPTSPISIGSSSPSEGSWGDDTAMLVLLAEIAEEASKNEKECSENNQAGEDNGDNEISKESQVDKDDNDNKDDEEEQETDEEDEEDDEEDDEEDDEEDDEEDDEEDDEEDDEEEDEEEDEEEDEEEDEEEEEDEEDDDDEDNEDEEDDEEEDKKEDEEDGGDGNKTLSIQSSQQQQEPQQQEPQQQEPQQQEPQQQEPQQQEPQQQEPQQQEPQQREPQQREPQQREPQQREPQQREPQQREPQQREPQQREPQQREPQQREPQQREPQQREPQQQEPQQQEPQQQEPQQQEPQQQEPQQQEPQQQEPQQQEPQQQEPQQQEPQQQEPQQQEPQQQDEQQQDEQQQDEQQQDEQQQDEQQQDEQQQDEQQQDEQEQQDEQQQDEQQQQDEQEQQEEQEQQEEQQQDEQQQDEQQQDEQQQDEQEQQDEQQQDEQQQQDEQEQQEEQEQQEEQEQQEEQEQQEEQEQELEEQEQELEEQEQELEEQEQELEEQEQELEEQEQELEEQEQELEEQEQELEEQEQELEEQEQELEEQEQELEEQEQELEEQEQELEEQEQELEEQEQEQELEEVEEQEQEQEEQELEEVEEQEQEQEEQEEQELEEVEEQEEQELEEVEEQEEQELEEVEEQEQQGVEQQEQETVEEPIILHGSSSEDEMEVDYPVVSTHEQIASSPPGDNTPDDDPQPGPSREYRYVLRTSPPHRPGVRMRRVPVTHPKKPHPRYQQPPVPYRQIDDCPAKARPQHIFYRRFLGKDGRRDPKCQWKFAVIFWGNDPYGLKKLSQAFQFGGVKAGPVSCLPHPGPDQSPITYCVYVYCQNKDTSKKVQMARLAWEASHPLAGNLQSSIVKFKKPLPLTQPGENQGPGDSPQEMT
The depositor's hits bear a star; ? = inconclusive; . = no result given; & = joins results of further samples.

molecule	Ecoli growth	Beta2AR agonist	UCH37 inh	HNF4A DNA FP	Bfl-1 A1 inh	Vif A3G	LANA-H2B inh
Cc1cccc(NC2=C(Cl)C(=O)OC2NC(=O)c2ccccc2)c1 (stereo unspecified)	0.72	-9	3.8	1.9	0.1	-2%	11
O=C(Nc1ccc(N2CCOCC2)cc1)c1cccnc1	0.7	-5	4.0	1.6	-0.5	24%	3.0
CCS(=O)(=O)c1nc(NC(C)=O)n[nH]1	0.73	8	3.3	-3.5	1.7	-1%	-1.5
CCCCCCCCCCCn1nnnc1N	0.69	1	3.3	6.1	.	-9%	.
COc1ccc(-c2cc(C(=O)NC3CC3)c3ccccc3n2)cc1	0.72	-8	-246	-1.9	-0.5	.	1.0
Cc1noc(C)c1COc1ccccc1C(=O)N1CCN(c2cccc(C(F)(F)F)c2)CC1	0.71	-5	1.3	3.1	1.1	2%	-0.2
c1ccc2c(c1)ccc1nnc(-c3ccc4c(c3)OCO4)n12	0.68	-6	-4.3	5.7	-0.3	-1%	-1.3
COc1ccc(N2C(=NC(=O)C3CCCO3)SC3CS(=O)(=O)CC32)cc1 (stereo unspecified)	0.7	-8	3.1	-0.6	-0.3	.	-5.6
O=S(=O)(c1ccccc1)N1CCSC1c1ccco1 (stereo unspecified)	0.72	14	2.7	-2.0	.	6%	.
COCCC(=O)N1CCC(n2nccc2NC(=O)c2ccccc2C)CC1	0.67	2	-0.3	4.5	1.2	.	-5.7
CN(C)S(=O)(=O)c1ccc2c(c1)C(CC(=O)O)NC2=O (stereo unspecified)	0.67	0	2.7	-1.5	-0.7	-4%	3.1
Cc1ccc(S(=O)(=O)NCC(=O)N2CCOCCOCCOCCOCC2)cc1	.	10	.	0.3	-0.5	1%	-1.8
O=C(CCC(=O)N1CCN(S(=O)(=O)c2ccc(Cl)cc2)CC1)Nc1ccc(Cl)cc1Cl	0.65	-20	5.8	0.1	0.1	.	-1.4
Cc1cc(Cl)ccc1NC(=S)NCCCO	0.71	10	1.8	-0.4	2.1	.	2.5
CC(=NCc1cccnc1)C1=C(O)c2ccccc2C1=O	0.72	-11	9.8	3.5	-1.8	2%	-0.6
COc1ccc(-c2cc(C(=O)NCC3CCCO3)c3cc(C(C)C)ccc3n2)cc1 (stereo unspecified)	0.7	4	-239	3.4	-1.2	.	3.0
COc1ccc(NC(=O)CCN2C(=O)c3ccc([N+](=O)[O-])cc3C2=O)c(OC)c1	0.65	-7	2.3	-6.1	0.5	-5%	-0.6
O=C(OCc1nnc(-c2ccccc2)o1)c1cc(S(=O)(=O)N2CCOCC2)ccc1F	0.71	0	-1.2	5.8	-0.6	1%	9.0
COc1ccc(C2CC(c3c(-c4ccccc4)c4cc(Cl)ccc4[nH]c3=O)=NN2S(C)(=O)=O)cc1 (stereo unspecified)	.	0	2.8	-4.5	1.0	-2%	-1.3
Cn1c(-c2csc(-c3cccc(C(F)(F)F)c3)n2)n[nH]c1=S	0.74	-6	3.4	1.9	0.2	-7%	-2.4
CCN(Cc1ccccc1)C(=O)C1CCN(Cc2sccc2C)CC1	0.72	0	2.0	-2.9	1.1	-4%	0.3
O=C(O)CC(c1ccccc1)N1C(=O)c2ccccc2C1=O (stereo unspecified)	0.65	4	3.5	3.8	0.8	.	-0.5
O=C(c1cc(-c2ccc(Br)cc2)nc2ccccc12)N1CCN(c2ccccc2O)CC1	0.6	-3	3.4	-0.1	-0.9	.	0.1
O=C(O)c1[nH]c2ccccc2c1-c1ccccc1	0.73	-2	-14	0.3	0.9	-5%	-0.2
CCOC(=O)c1[nH]c(C)c(C(=O)NCCc2ccc(OC)cc2)c1C	0.73	-6	3.3	0.5	-0.3	?	2.2
Cc1cc(C)nc(NS(=O)(=O)c2ccc(NC(=O)CCC(=O)O)cc2)n1	0.68	-3	2.8	2.1	-0.1	.	-5.6
O=C(Cn1cncn1)NCCC(c1ccccc1)c1ccccc1	0.7	-1	3.1	1.9	0.3	-5%	-0.6
COc1ccccc1-c1nc(-c2ccccn2)no1	0.7	-29	2.4	1.7	-9.4	-3%	0.3
COc1ccc2c(c1)c(=O)oc1cc(OCC(=O)NC3CCCCC3)ccc12	0.7	-5	-130	-3.3	0.0	28%	0.1
Cc1cccc(NC(=O)CCCn2cc([N+](=O)[O-])cn2)n1	0.72	0	5.1	-2.2	-0.5	-2%	3.7
CCCNC(=O)COC(=O)CCC(=O)c1ccc(F)cc1	0.69	-6	1.5	0.4	0.6	3%	-2.1
CC1C(=O)N(c2ccc(S(=O)(=O)N(C)C)cc2)C1(/C=C/c1ccccc1)C(=O)NC1CCCC1 (stereo unspecified)	0.7	6	-1.1	-1.1	-0.1	0%	-7.2
Cn1c(C(=O)N2CCN(Cc3ccc4c(c3)OCO4)CC2)cc2sccc21	0.69	-6	0.8	1.5	-0.2	17%	-0.3
CCCCNC(=O)CN(c1cc(C(F)(F)F)ccc1Cl)S(C)(=O)=O	0.7	-5	3.9	-3.9	-0.6	-8%	-4.3
Fc1cccc(-c2nnn3c2nc(Cl)c2ccccc23)c1	0.71	29	-66	-2.4	.	-17%	.
CCOc1ccc(Nc2cc3n(c(=O)n2)CCc2cc(OC)c(OC)cc2-3)cc1	0.68	2	8.0	5.2	-0.6	-8%	-2.3
O=C(Nc1ccc(Cl)cc1)N(Cc1cccnc1)Cc1ccco1	0.64	-7	3.2	-3.5	1.2	4%	4.5
CCc1cc2cc(C)ccc2nc1SCC(=O)N1CCN(C(=O)c2ccco2)CC1	0.69	-2	1.5	1.2	0.3	3%	1.7
O=C1CC(Nc2ccc(N3CCOCC3)cc2)C(=O)N1c1ccccc1F (stereo unspecified)	0.72	1	7.5	0.2	-0.6	1.6µM*	-0.8
CC(=O)C1=C(O)C(=O)N(c2ccc(Br)cn2)C1c1ccccc1F (stereo unspecified)	0.74	-7	-8.5	-4.3	-0.8	5%	3.8
O=C(COc1ccccc1)NCc1nnc2c3ccccc3c(-c3ccccc3)nn12	0.71	-9	-1.6	2.7	2.3	.	-0.5
Cc1cccc(C)c1-c1ccc(CN2C(CC(C)C)C(=O)N(Cc3cn(CC4CCCCC4)nn3)CCS2(=O)=O)cc1 (stereo unspecified)	.	9	.	1.1	.	5%	.
CC(=O)NNC(=O)CN1C(=O)/C(=C/c2ccccc2)SC1=S	0.71	-10	9.5	-3.2	1.5	.	3.1
O=S(=O)(O)c1nc2ccccc2n1Cc1ccc(Cl)cc1Cl	0.71	-4	-0.2	0.5	-0.7	-4%	-3.5
Cc1ccc(S(=O)(=O)Nc2ccc(Cl)cc2)cc1NC(=O)Cn1cnc2c1c(=O)n(C)c(=O)n2C	0.72	5	2.5	2.4	0.8	4%	2.8
COc1ccc2[nH]c(=O)c(CN(CC3CCCO3)C(=O)Nc3ccccc3)cc2c1 (stereo unspecified)	0.66	2	-43	2.9	3.1	-4%	-0.9
CCOC(=O)c1sc2nc(CC(C)C)c3c(c2c1N)CCC3	.	-4	-60	-0.2	-0.9	.	-1.9
COc1ccc(NC2CCCN(C(=O)CCc3cccc(Cl)c3)C2)cc1 (stereo unspecified)	0.7	-3	1.6	-0.4	-0.9	-3%	-4.2
CC(c1ccco1)N(C(=O)c1ccccc1NS(=O)(=O)c1cc([N+](=O)[O-])ccc1Cl)c1ccccn1 (stereo unspecified)	0.65	1	2.5	0.9	0.5	1%	3.3
O=S(=O)(Nc1ccc2c(c1)CCC2)c1cccs1	0.67	7	0.4	7.4	-0.9	1%	0.5

(more compounds)
molecule	Ecoli growth	Beta2AR agonist	UCH37 inh	HNF4A DNA FP	Bfl-1 A1 inh	Vif A3G	LANA-H2B inh
CC(C)(O)C#Cc1ccc(C(=O)N2CCCC2C(=O)O)s1 (stereo unspecified)	0.69	5	3.3	-2.3	0.5	16%	0.5
O=C(CCNC(=O)c1ccc([N+](=O)[O-])cc1)Nc1ccc(S(=O)(=O)N2CCOCC2)cc1	0.7	-2	-1.1	-7.8	-0.3	3%	-1.9
COc1ccc(Oc2cc(NN3CCCCC3)c([N+](=O)[O-])cc2[N+](=O)[O-])cc1OC	0.73	-1	4.5	2.3	1.1	.	0.2
COc1ccc(-c2csc3nc(C)nc(N4CCN(C(C)=O)CC4)c23)cc1OC	0.67	0	1.2	0.8	-0.6	-7%	-2.1
Cn1cc(C(=O)NC2C3CC4CC(C3)CC2C4)cn1 (stereo unspecified)	0.71	-3	6.4	17	0.4	-12%	-6.6
CCC1=C(C(=O)OC)C(c2cc(OC)ccc2OC)C(C#N)=C(N)O1 (stereo unspecified)	0.73	4	-2.0	-0.8	-0.1	?	-3.3
Cc1ccnc(NC(=O)C2CCCN(S(=O)(=O)c3cnc[nH]3)C2)c1 (stereo unspecified)	0.67	-1	3.4	1.2	0.0	23%	1.4
Cn1c(=O)cc(OCC(=O)NCc2cccnc2)c2ccccc21	0.72	-2	-1.3	-0.9	0.1	-4%	3.7
O=C(O)c1cc(Cl)ccc1NC(=O)C1CCCO1 (stereo unspecified)	0.69	5	-3.4	0.1	0.7	18%	-6.5
CCCCN1C(=O)CCC(C(=O)O)C1c1ccccc1 (stereo unspecified)	0.71	-2	0.8	1.3	-0.6	6%	0.1
CCCC(=O)Nc1ccc(Oc2ccc(NC(=O)CCC)cc2)cc1	0.69	1	2.2	4.0	1.1	-4%	4.4
Cc1ccc2sc(N(CCCN(C)C)C(=O)c3ccc(S(=O)(=O)N(C)Cc4ccccc4)cc3)nc2c1C	0.58	18	3.8	1.1	0.0	0%	-4.7
COc1ccc(C(=O)Nc2nnc(-c3ccc(F)cc3)s2)c(OC)c1	0.71	-151	-0.6	19	.	.	.
Nc1ccc2c(c1)Oc1ccccc1C=C2	.	3	.	2.8	-0.3	16%	-2.0
C/C=C/c1ccc(OCC(=O)Nc2cc(Cl)ccc2-n2cncn2)c(OC)c1	0.68	5	3.3	-1.8	0.0	-2%	3.8
COc1cc(C2C(C(=O)Nc3ccc(F)cc3)=C(C)Nc3nc(CCCO)nn32)cc(OC)c1OC (stereo unspecified)	0.75	-3	2.4	-0.6	-0.9	-2%&0%	-7.0
O=C(NCCN1CCN(c2ccccc2)CC1)Nc1cccc(Cl)c1	0.63	12	-0.2	1.6	-0.1	2%	0.5
O=C(NC1CCCCC1)c1ccccc1NC(=O)C1CC1	0.71	.	3.5	1.3	1.0	-1%	-1.6
Cn1c2ccccc2c2cc(/C=C(\NC(=O)c3ccccc3)C(=O)NCC(=O)O)ccc21	0.7	9	3.4	44*	-0.6	.	-12
CCCNC(=S)N1CCC(C(=O)c2ccc(Cl)cc2)CC1	0.68	11	1.5	-2.5	-0.9	.	-5.1

Single records (already shown). Order of screens: Ecoli growth	Beta2AR agonist	UCH37 inh	HNF4A DNA FP	Bfl-1 A1 inh	Vif A3G	LANA-H2B inh
Profile of O=C(NCCN1CCN(c2ccccc2)CC1)Nc1cccc(Cl)c1 : 0.63	12	-0.2	1.6	-0.1	2%	0.5
Profile of CCCC(=O)Nc1ccc(Oc2ccc(NC(=O)CCC)cc2)cc1 : 0.69	1	2.2	4.0	1.1	-4%	4.4
